Screening data: PubChem, several laboratories
INS promoter inh – TRM-6 insulin promoter activity inhibition; TRM-6 cells (human fetal islet line), insulin promoter-eGFP reporter, imaging; reporter expression induced with tamoxifen; inhibition, % at 2 µM; actives 0.9% (n = 130,000); AID 1273;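 active means inhibition above the mean plus 3 SD, with well images judged a real hit on visual review, cut at about 60% in these data, passing the limit was not always enough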
GALR2 agonist – GALR2 (human) receptor agonism. AID 803. actives 0.48% (n = 140,000). GALR2-expressing cells, agonist activation read-out. activation, %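 (tested at 5 µM)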;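 active means above mean plus 3 SD of all compounds, about 5% in these data, not always enough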;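 further: 0% = vehicle buffer wells and 100% = reference agonist at full effect; tested in CHO reporter cells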
Target sequence (O43603 whole entry, looked up): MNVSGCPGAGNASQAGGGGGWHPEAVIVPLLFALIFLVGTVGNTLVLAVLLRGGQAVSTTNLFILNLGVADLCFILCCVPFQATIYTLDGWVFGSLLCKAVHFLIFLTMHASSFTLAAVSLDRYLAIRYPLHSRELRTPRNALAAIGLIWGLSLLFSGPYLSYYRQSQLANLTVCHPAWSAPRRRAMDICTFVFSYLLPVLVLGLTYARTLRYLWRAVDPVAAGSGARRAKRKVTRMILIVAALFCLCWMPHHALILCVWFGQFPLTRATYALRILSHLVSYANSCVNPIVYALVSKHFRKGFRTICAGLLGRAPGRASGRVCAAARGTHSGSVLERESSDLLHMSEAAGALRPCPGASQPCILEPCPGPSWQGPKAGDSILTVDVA
RGS16-Gao HTS – RGS16-Galphao interaction regulator (human). actives 0.38% (n = 220,000). binding response (% of control), % at 10 µM. O15492+P09471. bead-based flow cytometry RGS16-Galphao binding, fluorescence; actives lie on both sides;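 active means below 25% or above 175%, edge rows of some plates excepted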;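 further: Galphao activated by GDP with aluminum fluoride before binding; 100% = wells without compound and 0% = beads without RGS; some results beyond the cut were filed as inactive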
Target sequence (O15492 whole entry, looked up): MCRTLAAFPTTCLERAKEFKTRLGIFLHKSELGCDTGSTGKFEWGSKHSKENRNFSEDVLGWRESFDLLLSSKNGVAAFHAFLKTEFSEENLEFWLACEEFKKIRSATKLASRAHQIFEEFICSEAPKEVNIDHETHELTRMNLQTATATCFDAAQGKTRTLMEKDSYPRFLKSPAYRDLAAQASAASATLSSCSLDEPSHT
Target sequence (P09471 whole entry, looked up): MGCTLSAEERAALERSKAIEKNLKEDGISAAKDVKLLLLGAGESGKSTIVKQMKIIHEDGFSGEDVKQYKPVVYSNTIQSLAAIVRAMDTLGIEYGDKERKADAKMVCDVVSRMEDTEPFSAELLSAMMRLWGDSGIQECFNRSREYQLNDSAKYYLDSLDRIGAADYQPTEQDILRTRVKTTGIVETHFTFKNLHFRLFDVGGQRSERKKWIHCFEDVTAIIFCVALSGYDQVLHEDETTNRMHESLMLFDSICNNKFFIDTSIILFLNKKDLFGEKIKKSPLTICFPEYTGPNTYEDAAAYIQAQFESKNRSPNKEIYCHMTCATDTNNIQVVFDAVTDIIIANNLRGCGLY
HSV augment – increases HSV replication in cells. actives 0.005% (n = 220,000). HSV replication augmentation in cells, fold increase. maximum fold increase;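 active means peak rise of 1.5-fold or more in the series; tested in PC3 cells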;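 further: first round at 10 µM; read as green reporter fluorescence; hits show the peak of a series up to 25 µM; 1 = signal of infected wells without compound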
PKD1 inh – blocks activity of human protein kinase D1 | PKD1 kinase fluorescence polarization assay | inhibition, %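 (about 10 µM by stock and volumes)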 | Q15139 | actives 0.056% (n = 200,000);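 active means inhibition of 50% or more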;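 further: controls were vehicle for no effect and a reference inhibitor for full effect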
INS promoter inh cell count – further read-out of INS promoter inh, marked with its call; normalized cell count, %; measured here: cell count, toxicity; reference of the scale not given here;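 cells exposed to compound for 48 h; stained nuclei by imaging scaled within each plate; lower means fewer cells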
HSV augment primary fold – recorded beside HSV augment, whose call it bears; fold increase; compound at 10 µM; measured here: primary screen fold increase 10 uM; tested in PC3 cells;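 GFP signal in the first replicate; 1 = infected wells without compound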
Active calls of the source: *; i = inactive; . = not tested or not shown.

SMILES	INS promoter inh	INS promoter inh cell count	GALR2 agonist	RGS16-Gao HTS	HSV augment	HSV augment primary fold	PKD1 inh
O=C(CN1C(=O)S/C(=C\c2ccc(Cl)cc2)C1=O)NNC(=O)c1ccccc1O	.	.	2.0	106	i	0.98	-3
CCCCCCCC(=O)N/N=C/c1ccco1	.	.	-2.8	99	i	1	9
CN(C)c1nc(NCc2ccccc2)nc(N/N=C/c2ccc(Cl)cc2Cl)n1	-2	76	-1.4	97	i	1.1	-1
CC(=O)c1cccc(OCC(=O)N2CCN(c3ccc(C(F)(F)F)cn3)CC2)c1	.	.	.	98	i	0.95	-1
C[C@]12CCC(=O)C[C@@H]1CC[C@@H]1[C@@H]2CC[C@]2(C)C=CC[C@@H]12	.	.	.	102	i	0.81	.
CCOc1cc(/C=N/NC(=O)CCn2nc(C)cc2C)ccc1O	.	.	.	103	i	0.77	.
COc1ccc(S(=O)(=O)Nc2ccc3oc(C)c(C(C)=O)c3c2)cc1	11	94	-1.4	100	i	0.7	-3
C/C(=N/NC(=O)Cc1cccs1)c1ccco1	25	66	-0.5	110	i	0.99	-15
CCN(CC)c1ccc(C(=O)OCC(=O)N2CCN(c3ccccc3)CC2)cc1	.	.	-1.4	103	i	0.78	-4
Cc1c(NS(=O)(=O)c2ccccc2)cc(Cl)c(O)c1C	27	80	-2.0	98	i	0.58	6
CCn1cc(C(=O)N2CCc3ccccc32)c(=O)c2cc(S(=O)(=O)N3CCCCCC3)ccc21	-31	114	-0.8	118	i	0.83	-1
CCOC(=O)c1cc(NC(=O)c2ccc(Cl)cc2)c(=O)oc1-c1ccccc1	52	118	-2.5	120	i	0.71	-3
CCC(=O)Nc1cccc(NC(=O)CSc2nnc(C3CC3)n2C)c1	0	82	-2.8	106	i	1	-4
Clc1ccc(Cn2ncc3c(NCc4cccnc4)ncnc32)cc1	31	137	-1.3	68	i	0.96	-6
NC(=O)C1CCN(C(=O)c2ccc(C(F)(F)F)cc2)CC1	.	.	-4.0	105	i	0.94	-3
O=C(CCN1CCN(C/C=C/c2ccccc2)CC1)Nc1ccccc1	32	91	-0.1	101	i	0.95	-9
Cc1ccc(NCc2nnc(SCC(N)=O)n2CC2CCCO2)c(C)c1 (configuration not stated)	-16	53	-2.8	104	i	0.88	-2
c1ccc(C(CN2CCOCC2)c2ccccc2)cc1	.	.	-0.7	100	i	1	-8
COc1ccccc1-c1nnc(SCC(=O)O)n1C	15	139	-0.3	109	i	0.9	-6
C[C@@H]1CC[C@@]2(O[C@H](CCO)C[C@H](O)[C@H]2O)O1	.	.	.	103	i	1.3	-1
COc1ccccc1-c1nnc(NC(=O)C(C)Sc2nncn2C)s1 (configuration not stated)	-12	106	.	104	i	0.93	-2
CN(CC(=O)NCCC1=CCCCC1)S(=O)(=O)c1ccc2c(c1)c(=O)n(C)c(=O)n2C	.	.	-3.1	96	i	0.87	6
CC(Oc1ccccc1)C(=O)Nc1oc(-c2ccco2)c(-c2ccco2)c1C#N (configuration not stated)	7	108	-0.8	80	i	1.2	-7
CC1SC(=NC(=O)c2ccncc2)NC1=O (configuration not stated)	.	.	.	105	i	1	-3
CCOc1ccccc1NC(=O)CSc1nnc(-c2ccccn2)n1Cc1ccco1	8	107	-1.2	95	i	0.9	3

More entries
SMILES	INS promoter inh	INS promoter inh cell count	GALR2 agonist	RGS16-Gao HTS	HSV augment	HSV augment primary fold	PKD1 inh
CS(=O)(=O)N(Cc1ccccc1)c1ccc(C(=O)NC2CCCCC2O)cc1 (configuration not stated)	50	123	-1.1	112	i	0.99	-3
Cc1ccccc1-n1c(C)nnc1SCC(=O)N1CC(=O)Nc2ccccc21	6	100	-0.3	103	i	0.9	-2
Cc1cccc(NC(=S)NC2CC3CCC(C2)N3Cc2ccco2)c1 (configuration not stated)	.	.	-0.6	98	i	0.69	1
O=C(/C=C/c1ccc(Cl)cc1Cl)N1CCN(c2ccccc2[N+](=O)[O-])CC1	.	.	-1.5	77	i	0.92	0
COc1ccccc1N1CCN(Cc2nc(N)nc(Nc3ccc(C)c(Cl)c3)n2)CC1	11	117	-1.0	97	i	0.91	-7
Cc1nnc(NC(=O)c2ccc3c(c2)OCO3)s1	-78	31	.	111	i	0.96	-3
Cc1cc(C)n2nc(SCC(=O)Nc3c(C)n(C)n(-c4ccccc4)c3=O)nc2n1	-32	105	0.2	103	i	0.96	-3
CCOC(=O)Cc1csc(NC(=O)COc2ccc3c(C)cc(=O)oc3c2)n1	.	.	.	106	i	0.84	2
O=C(O)C1CCN(C(=O)c2scc3c2OCCO3)CC1	.	.	-3.1	103	i	0.77	-6
O=C(CCn1c(=O)c2sccc2n(CC(=O)OCc2ccccc2)c1=O)NCc1ccco1	.	.	-1.5	105	i	0.87	-6
CC1(C)Cc2ccccc2C2=C(C(=O)N3CCCCCC3)C(=O)C(=O)N21	29	128	.	106	i	0.93	5
COc1ccc(/C=C2/SC(=S)N(c3ccc(S(=O)(=O)Nc4nccs4)cc3)C2=O)cc1	.	.	.	95	i	0.97	.
Clc1ccc(/C=C/c2nc(Cl)c(-c3ccc(Cl)cc3)c(Cl)n2)cc1	.	.	.	103	i	0.95	.
COc1ccc(CNC(=O)c2cc3c(=O)n4ccccc4nc3n(Cc3ccco3)c2=N)cc1	10	165	-0.8	.	.	.	-3
CN(C)S(=O)(=O)c1cccc(C(=O)OCC(=O)Nc2sccc2C#N)c1	-14	111	-1.6	-63*	.	.	-7
O=C1S/C(=C\C=C\c2ccco2)C(=O)N1c1ccccc1	.	.	-0.5	104	i	1.1	-2
Cc1ccc(C(=O)NCCc2ccc(F)cc2)s1	.	.	.	100	i	0.92	-1
c1nc(N2CCC3(CC2)OCCO3)c2c3c(sc2n1)CCCC3	.	.	-3.8	108	i	0.91	7
CC(Oc1ccc(C#N)cc1)C(=O)c1ccc(F)c(F)c1 (configuration not stated)	33	114	.	99	i	0.99	-2
O=C(CC(C(=O)N1CCc2ccccc21)n1ccnc1)NCc1ccccc1 (configuration not stated)	-16	135	-0.1	476	i	0.95	4
C/C(NCC(C)(C)CN(C)C)=C(/C#N)C(=O)NCc1ccccc1	.	.	-1.8	100	i	0.93	0
CCc1ccc(S(=O)(=O)Nc2cccc(-c3ccc4nncn4n3)c2)s1	-15	89	.	48	.	.	-6
CC1=C(C(=O)Nc2ccccc2C)C2(CCCCC2)C(C(N)=O)C(=S)N1 (configuration not stated)	-38	57	-1.9	89	i	0.96	5
O=S(=O)(c1ccccc1Oc1ccc(Cl)cc1Cl)N1CCCCC1	.	.	.	101	i	0.93	.
Cc1cc(C)c2c(=O)[nH]c(SCc3ccccc3C)nc2n1	-7	116	.	99	i	1	-4

Next results follow:
SMILES	INS promoter inh	INS promoter inh cell count	GALR2 agonist	RGS16-Gao HTS	HSV augment	HSV augment primary fold	PKD1 inh
Cn1c(=O)c2c(nc(OCC3COC(C)(C)O3)n2Cc2ccccc2F)n(C)c1=O (configuration not stated)	29	57	-0.3	161	i	0.98	10
O=C(N1CCOCC1)N1CCC(n2nnc3cc(F)ccc32)CC1	33	108	-2.6	98	i	1	2
O=C(Cc1ccccc1)Nc1ccc(NC(=O)c2cccs2)cc1Cl	.	.	.	108	i	1	-7
Oc1ccc(/C=C/c2ccnc3ccccc23)cc1	.	.	-1.9	77	i	0.73	13
COc1ccc(S(=O)(=O)Nc2ccc(NC(C)=O)cc2)cc1Br	.	.	.	99	i	0.86	-3
Cc1ccc(C(C(=O)NC2CCCC2)N(Cc2ccc3c(c2)OCO3)C(=O)c2snc(C(N)=O)c2N)cc1 (configuration not stated)	.	.	.	102	i	0.91	.
CC(Sc1nc2ccccc2s1)C(=O)N1CCOCC1 (configuration not stated)	.	.	-1.5	105	i	1	2
COC(=O)CNC(=O)/C=C/c1ccc(OC)cc1	11	100	-0.8	105	i	1.4	2
CC(C)c1ccccc1NC(=O)c1cccnc1	.	.	0.1	102	i	1	-2
CCn1c(O)c(C=NCc2ccccc2)sc1=S	.	.	.	101	i	1.1	.
Cc1cccc(OCCn2c(=O)sc3ccccc32)c1	-114	74	-0.5	98	i	0.95	3
O=C(Nc1ccc(O)c2c(=O)cc(-c3ccccc3Cl)oc12)c1ccc(F)cc1	.	.	.	82	i	0.85	.
CC(C)(O)C(O)COc1c2ccoc2cc2oc(=O)ccc12 (configuration not stated)	.	.	.	103	i	0.85	7
O=S(=O)(c1ccc(F)cc1)c1nc(-c2ccco2)oc1Nc1ccccc1	-52	82	0.4	66	i	0.96	-1
CC(=O)N1CCN(Cc2nc3cc(NC(=O)c4cccc(Br)c4)ccc3n2C)CC1	.	.	.	96	i	1	.
c1ccc(-c2ccc(CN3C[C@@H]4C(c5ccccc5)C5(c6cccnc6)CC4(C5)[C@H]3c3ccccc3)cc2)cc1 (some centres not stated)	.	.	.	104	i	1.1	.
Cc1ccc(Sc2oc(/C=N/n3cnnc3)cc2Br)cc1	36	98	0.2	104	i	0.92	8
CCCC(=O)NC(c1ccc2c(c1)OCO2)c1cc(Cl)c2cccnc2c1O (configuration not stated)	.	.	-2.1	80	i	0.79	-2
N/C(CCS(=O)(=O)c1ccc(Cl)cc1)=N\OC(=O)c1ccccc1C(F)(F)F	.	.	.	104	i	0.8	.
Cn1c(=O)[nH]c(=O)c2c1nc(SCCO)n2CC(O)COc1ccccc1 (configuration not stated)	-15	58	.	51	i	0.88	-7
CCCCNC(=O)CO/N=C(\C)c1cc2ccccc2o1	5	55	-1.3	83	i	0.94	-10
CC1CC(C)CN(C(=O)c2ccc3c(=O)n(Cc4ccc5c(c4)OCO5)c(=S)[nH]c3c2)C1 (configuration not stated)	66	103	-3.2	100	i	0.83	-16
N#CC1=C(C=Nc2ccccc2O)CCC1	-33	82	-4.2	102	i	0.94	1
O=C(CSc1ncn[nH]1)Nc1ccc2c(c1)CCC2	-23	80	-1.5	111	i	0.92	-15
CCC(Sc1nc(=O)cc(N)n1-c1cccc(C)c1)C(=O)Nc1cc(C)on1 (configuration not stated)	14	102	-5.0	102	i	0.88	-10

Single records, as listed above. Screens in order: INS promoter inh | INS promoter inh cell count | GALR2 agonist | RGS16-Gao HTS | HSV augment | HSV augment primary fold | PKD1 inh
Cc1c(NS(=O)(=O)c2ccccc2)cc(Cl)c(O)c1C in the list: 27 | 80 | -2.0 | 98 | i | 0.58 | 6
Cc1cccc(NC(=S)NC2CC3CCC(C2)N3Cc2ccco2)c1 (configuration not stated) in the list: . | . | -0.6 | 98 | i | 0.69 | 1
Cc1ccc(C(=O)NCCc2ccc(F)cc2)s1 in the list: . | . | . | 100 | i | 0.92 | -1
C[C@@H]1CC[C@@]2(O[C@H](CCO)C[C@H](O)[C@H]2O)O1 in the list: . | . | . | 103 | i | 1.3 | -1
CCCCCCCC(=O)N/N=C/c1ccco1 in the list: . | . | -2.8 | 99 | i | 1 | 9

Structural class: those above with a COOH group
SMILES	INS promoter inh	INS promoter inh cell count	GALR2 agonist	RGS16-Gao HTS	HSV augment	HSV augment primary fold	PKD1 inh
COc1ccccc1-c1nnc(SCC(=O)O)n1C	15	139	-0.3	109	i	0.9	-6
O=C(O)C1CCN(C(=O)c2scc3c2OCCO3)CC1	.	.	-3.1	103	i	0.77	-6

Next structures follow.
SMILES	INS promoter inh	INS promoter inh cell count	GALR2 agonist	RGS16-Gao HTS	HSV augment	HSV augment primary fold	PKD1 inh
O=C(O)Cc1ccc(NC(=O)Nc2ccc(Br)cc2)cc1	22	170	.	102	i	0.98	-2
O=C(NCC1CCCO1)c1ccc(Oc2ccc([N+](=O)[O-])cc2Cl)cc1 (configuration not stated)	.	.	.	102	i	0.79	0
O=C(OCC(=O)N1CCCC1)c1ccc(OC(F)(F)F)cc1	.	.	.	108	i	0.98	4
Cc1ccc2nc(-c3ccc(NC(=O)CSc4nc(N)cc(=O)[nH]4)cc3)sc2c1	.	.	.	104	i	0.8	.
CO/N=C/NC(=O)c1c(OC)ccnc1Oc1ccccc1	-21	73	-0.1	83	i	0.9	-14
Cn1nnnc1SCc1ccc(CSc2nnnn2C)cc1	.	.	.	99	i	0.77	-7
CN1CCN(C(=O)N2CCNC2=O)CC1	.	.	-2.0	101	i	0.9	-2
CCOc1ccccc1N1CCN(C(=S)Nc2ccc(S(N)(=O)=O)cc2)CC1	-11	123	-0.7	107	i	1.1	-1
CCc1ccc(CC(=S)N2CCOCC2)cc1	-12	103	.	107	i	1	-8
O=C(CCCN1C(=O)c2cccc3cccc(c23)C1=O)N1CCN(c2ccc(F)cc2)CC1	.	.	.	98	i	0.89	-8
CCOc1ccc(N(C(C)C(=O)NC2CCCCCC2)S(C)(=O)=O)cc1 (configuration not stated)	-16	97	-2.1	104	i	0.98	1
COc1ccc(NC(=O)c2cc(OC)c(OC)c(OC)c2Br)cc1OC	-69	80	0.0	69	i	0.87	2
